# Screens as filed in PubChem BioAssay.
# Env fusion inh: HIV envelope-mediated fusion inhibition; HeLa-JRFL Env/CEM21 cell fusion, luciferase; inhibition, % at 12.3 µM; hit rate 1.1% among 360,000; AID 651610;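 active = mean replicate inhibition score of at least 50 and every replicate individually at or above 50; inconclusive = only one of the two criteria met; inactive = mean below 50 and not all replicates reaching 50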;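 also: 0% = plate neutral controls and 100% = maraviroc near 300 nM; one replicate is shown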
# Active calls of the source: *; ? = inconclusive; [ ] = remark or other dose.
SMILES,Env fusion inh
COC(=O)[C@]12C[C@H](CC(=O)N3CCC(c4ccccc4)CC3)C(=O)N(Cc3ccc4c(c3)OCO4)C1=C[C@H](C(C)(C)C)O[C@@H]2C,-7.9
COC(=O)C[C@H]1CC[C@H]2[C@H](COc3ccc(NC(=O)Cc4cccs4)cc3C(=O)N2C)O1,1.5[16.7 µM]
COCCNC(=O)C[C@H]1C[C@H]2c3cc(NC(=O)Nc4ccc(C(F)(F)F)cc4)ccc3O[C@H]2[C@@H](CO)O1,0.5[16.7 µM]
Cc1noc(C)c1NC(=O)Nc1ccc2c(c1)C(=O)N([C@H](C)CO)C[C@@H](C)[C@@H](CN(C)C(=O)Nc1ccccc1)O2,9.2[16.7 µM]
C[C@@H](NC(=O)C[C@H]1CC[C@H]2[C@@H](COC[C@H](O)CN2C(=O)Nc2cccc(Cl)c2)O1)c1ccccc1,-15.0[16.7 µM]
CO[C@@H]1CN(C)C(=O)c2cc(NC(=O)c3ccc(F)cc3)ccc2OC[C@H](C)NC[C@@H]1C,-6.2[16.7 µM]
C[C@@H]1CN([C@@H](C)CO)C(=O)c2ccccc2-c2ccccc2CO[C@@H]1CN(C)C(=O)Nc1ccnc(N2CCOCC2)c1,6.1[16.7 µM]
C[C@@H]1CN([C@H](C)CO)C(=O)c2ccccc2-c2ccccc2CO[C@H]1CN(C)S(=O)(=O)c1ccccc1F,-1.4[16.7 µM]
NC(=O)c1ncn([C@@H]2O[C@H](C(=O)N[C@H](Cc3c[nH]c4ccccc34)C(=O)O)[C@@H](O)[C@H]2O)n1,6.4
O=C(C[C@H]1CC[C@@H]2[C@H](COC[C@@H](O)CN2Cc2ccccc2)O1)N1CCOCC1,-11.5[16.7 µM]
O=C(C[C@@H]1CC[C@H]2[C@@H](COC[C@H](O)CN2Cc2cccc(Cl)c2)O1)NCC1CCCCC1,31.1[16.7 µM]
C[C@@H](NC(=O)C[C@H]1C[C@H]2c3cc(NS(=O)(=O)c4ccc(F)cc4)ccc3O[C@H]2[C@@H](CO)O1)c1ccccc1,11.3[16.7 µM]
COC(=O)c1ccc2nc(-c3cccc(Br)c3)c(Cc3cccc(Cl)c3)n2c1,23.4
CCc1c(-c2ccc(Br)cc2)ncn1CCc1ccccc1OC,?
CN1C(=O)c2cc(NC(=O)C3CCOCC3)ccc2OC[C@H]2O[C@H](CC(=O)NCCc3ccncc3)CC[C@@H]21,7.4[16.7 µM]
C[C@@H]1CCCCO[C@H](CN(C)C(=O)c2ccncc2)[C@H](C)CN([C@H](C)CO)C(=O)c2cc(NC(=O)c3ccccc3)ccc2O1,12.7[16.7 µM]
CO[C@@H]1CN(C)C(=O)c2ccc(NC(=O)Nc3cc(Cl)cc(Cl)c3)cc2OC[C@H](C)NC[C@H]1C,7.8[16.7 µM]
CC(C)[C@@H](C)NC(=O)N(C)C[C@@H]1OCc2ccccc2-c2ccccc2C(=O)N([C@H](C)CO)C[C@@H]1C,16.8[16.7 µM]
COc1ccc(C(=O)c2[nH]c(N)c(C(=O)c3c[nH]c4ccccc34)c2-c2ccc(OC)cc2)cc1,15.6
C[C@@H]1CN([C@H](C)CO)C(=O)c2ccccc2-c2ccccc2CO[C@@H]1CN(C)S(=O)(=O)CC(F)(F)F,3.7[16.7 µM]
O=C(C[C@H]1CC[C@@H]2[C@H](COC[C@H](O)CN2Cc2cccc(C(F)(F)F)c2)O1)NCCc1ccncc1,0.8[16.7 µM]
CC(C)NC(=O)N(C)C[C@H]1OCCCC[C@@H](C)Oc2ccc(NC(=O)Cc3ccccc3)cc2C(=O)N([C@@H](C)CO)C[C@H]1C,-19.8[16.7 µM]
CCC(=O)N1C[C@@H](C)[C@H](OC)CN(C)C(=O)c2ccc(NC(=O)c3cc(C)on3)cc2OC[C@H]1C,5.4[16.7 µM]
COC(=O)c1cc2c(c3c4ccccc4n(S(=O)(=O)c4ccc(C)cc4)c13)C(=O)N(CC(C)C)C2,18.2
COc1ccc(CNC(=O)N(C)C[C@@H]2OCc3ccccc3-c3c(n(C)c4ccccc34)C(=O)N([C@@H](C)CO)C[C@H]2C)cc1,38.3[16.7 µM]
C[C@@H]1CCCCO[C@@H](CN(C)C(=O)c2ccncc2)[C@@H](C)CN([C@H](C)CO)C(=O)c2cc(NC(=O)c3ccncc3)ccc2O1,8.3[16.7 µM]
CC(C)[C@@H](C)NC(=O)N(C)C[C@H]1OCc2ccccc2-c2ccccc2C(=O)N([C@@H](C)CO)C[C@@H]1C,-1.8[16.7 µM]
COCC(=O)N1C[C@@H](C)[C@H](OC)CN(C)C(=O)c2cc(NC(=O)c3cc(C)on3)ccc2OC[C@@H]1C,-4.4[16.7 µM]
CCCCCCCCN1C(=O)[C@@H](CC(=O)NCCCC)C[C@@]2(C(=O)OC)C1=C[C@H](C(C)(C)C)O[C@@H]2C,39.6
COc1ccc(OC(=O)N(C)C[C@H]2OCc3ccccc3-c3ccccc3C(=O)N([C@H](C)CO)C[C@H]2C)cc1,44.6[16.7 µM]
C[C@@H](NC(=O)C[C@H]1C[C@H]2c3cc(NC(=O)c4cccnc4)ccc3O[C@H]2[C@H](CO)O1)c1ccccc1,7.2[16.7 µM]
O=C(Nc1ccc2c(c1)[C@H]1C[C@H](CC(=O)N3CCCCC3)O[C@@H](CO)[C@H]1O2)NC1CCCC1,-20.6[16.7 µM]
CC(=O)c1ccc(-c2ccccc2C2=CC(=O)CC(C)(C)C2=O)cc1,-20.6
COc1ccc(S(=O)(=O)N(C)C[C@H]2Oc3ccc(NC(=O)Nc4cccc5ccccc45)cc3CC(=O)N([C@H](C)CO)C[C@@H]2C)cc1,3.0[16.7 µM]
COC(=O)C1=C(C)N(Cc2ccccc2C(F)(F)F)C(=NCc2ccccc2)NC1c1ccc(Cl)cc1 (stereo not drawn),-77.0
C[C@@H]1CN([C@@H](C)CO)S(=O)(=O)c2ccc(Br)cc2O[C@@H]1CN(C)CC1CC1,-5.0[16.7 µM]
CC(C)COC(=O)N(C)C[C@H]1OCc2ccccc2-c2ccccc2C(=O)N([C@@H](C)CO)C[C@H]1C,2.2[16.7 µM]
CN1CCN(C(=O)C[C@@H]2CC[C@@H](NC(=O)c3ccc4c(c3)OCO4)[C@H](CO)O2)CC1,-19.0[16.7 µM]
CC(C)(C)[S@](=O)N1Cc2cc(C(=O)NCc3ccccn3)nc(-c3cccc(-c4ccccc4F)c3)c2[C@@H]1CCO,40.4[16.7 µM]
Cc1ccc(N(C)c2nc(N)nc(N)c2N=O)cc1,-8.4
CO[C@H]1CN(C)C(=O)c2cc(NC(=O)Nc3c(C)noc3C)ccc2OC[C@@H](C)N(C)C[C@H]1C,-20.6[16.7 µM]
CC(C)C[C@H]1COc2cc(N3CCOCC3)ccc2S(=O)(=O)N1,0.8
CC(C)NC(=O)N(C)C[C@@H]1Oc2ncc(C#CC3CC3)cc2C(=O)N([C@@H](C)CO)C[C@@H]1C,-24.6[16.7 µM]
C[C@H](NC(=O)C[C@H]1C=C[C@@H](NC(=O)Nc2ccc3c(c2)OCO3)[C@H](CO)O1)c1ccccc1,-25.4[16.7 µM]
CCCNC(=O)N1CC2(C1)CN(Cc1cccc(OC)c1)[C@@H](CO)c1[nH]c3cc(OC)ccc3c12,-10.5[16.7 µM]
O=C(C[C@H]1C[C@H]2c3cc(NC(=O)c4ccc5c(c4)OCO5)ccc3O[C@H]2[C@H](CO)O1)NCCN1CCCCC1,-2.2[16.7 µM]
C[C@H](CO)N1C[C@H](C)[C@H](CN(C)S(=O)(=O)c2ccc(Cl)cc2)OCc2ccccc2-c2ccccc2C1=O,47.6[16.7 µM]
COc1cccc(C(=O)Nc2ccc3c(c2)C(=O)N(C)C[C@@H](OC)[C@@H](C)CN(CCc2ccccc2)[C@@H](C)CO3)c1,20.3[16.7 µM]
C[C@@H]1CN([C@@H](C)CO)C(=O)c2cc(NC(=O)C3CCCCC3)ccc2O[C@@H](C)CCCCO[C@@H]1CN(C)C,-22.3[16.7 µM]
O=C(C[C@H]1CC[C@H]2NC[C@H](O)COC[C@@H]2O1)NCc1ccc2c(c1)OCO2,-0.8[16.7 µM]

# An excerpt of these results, with bars between the fields:
SMILES | Env fusion inh
O=C(C[C@H]1C[C@H]2c3cc(NC(=O)c4ccc5c(c4)OCO5)ccc3O[C@H]2[C@H](CO)O1)NCCN1CCCCC1 | -2.2[16.7 µM]
C[C@H](CO)N1C[C@H](C)[C@H](CN(C)S(=O)(=O)c2ccc(Cl)cc2)OCc2ccccc2-c2ccccc2C1=O | 47.6[16.7 µM]

# Returning to the listing; the two compounds before the break are reprinted first.
SMILES,Env fusion inh
C[C@@H]1CN([C@@H](C)CO)C(=O)c2cc(NC(=O)C3CCCCC3)ccc2O[C@@H](C)CCCCO[C@@H]1CN(C)C,-22.3[16.7 µM]
O=C(C[C@H]1CC[C@H]2NC[C@H](O)COC[C@@H]2O1)NCc1ccc2c(c1)OCO2,-0.8[16.7 µM]
CC(C)NC(=O)N(C)C[C@@H]1OCCCC[C@@H](C)Oc2ccc(NC(=O)CCC(F)(F)F)cc2C(=O)N([C@H](C)CO)C[C@H]1C,0.3[16.7 µM]
C[C@@H]1CN([C@@H](C)CO)C(=O)c2cc(NC(=O)CCN3CCOCC3)ccc2O[C@@H]1CN(C)Cc1ccncc1,-20.7[16.7 µM]
CO[C@H]1CN(C)C(=O)c2cc(NC(=O)NC(C)C)ccc2OC[C@@H](C)N(CC2CC2)C[C@H]1C,-0.5[16.7 µM]
CCC(=O)Nc1ccc2c(c1)C(=O)N(C)[C@H]1CC[C@@H](CC(=O)Nc3cccc(OC)c3)O[C@H]1CO2,8.1[16.7 µM]
CCCNC(=O)N1C[C@@H](O)COC[C@@H]2O[C@@H](CC(=O)NCc3ccncn3)CC[C@H]21,1.3[16.7 µM]
Cc1noc(C)c1NC(=O)N(C)C[C@@H]1Oc2ccc(NC(=O)CCC(F)(F)F)cc2C(=O)N([C@@H](C)CO)C[C@@H]1C,-7.9[16.7 µM]
CO[C@@H]1CN(C)C(=O)c2cc(C#N)ccc2OCC[C@H]2CC[C@@H](OC)[C@@H](CN(C)C(=O)[C@H]1C)O2,0.0[16.7 µM]
COc1cc(OC)cc(C(=O)NCC2CCN(C(=O)C(=O)c3cccs3)CC2)c1,-38.4
CCOC(=O)C1CSCCS(=O)(=O)N1Cc1ccc(C)cc1 (stereo not drawn),18.1
CCCNC(=O)[C@@H]1[C@@H](CO)[C@@H]2Cn3c(ccc(C4=CCCC4)c3=O)[C@H]1N2C(=O)CC,-3.5[16.7 µM]
C[C@@H]1CN([C@@H](C)CO)C(=O)c2ccccc2-c2ccccc2CO[C@H]1CN(C)C(=O)C1CC1,-6.9[16.7 µM]
C=CCN=C1NC(c2ccc(Cl)cc2)C(C(=O)OC)=C(C)N1Cc1ccccc1C(F)(F)F (stereo not drawn),28.3
C[C@H]1CN([C@@H](C)CO)C(=O)c2cc(NC(=O)Cc3cn(C)c4ccccc34)ccc2O[C@@H]1CN(C)Cc1ccc(-c2ccccc2)cc1,-17.6[16.7 µM]
CCCC(=O)Nc1ccc2c(c1)OC[C@@H](C)NC[C@H](C)[C@H](OC)CN(C)C2=O,-10.7[16.7 µM]
CC(C)NC(=O)N[C@H]1CC[C@H](CCN)O[C@H]1CO,21.1[16.7 µM]
C[C@@H]1CN([C@@H](C)CO)C(=O)c2ccccc2-c2ccccc2CO[C@@H]1CN(C)C(=O)CCC(F)(F)F,14.7[16.7 µM]
Cc1ccc2nc(-c3cccc(Br)c3)c(Cc3cccc(F)c3)n2c1,-12.5
COCC(=O)Nc1ccc2c(c1)[C@@H]1C[C@@H](CC(=O)N[C@@H](C)c3ccccc3)O[C@@H](CO)[C@@H]1O2,-15.4[16.7 µM]
C[C@@H]1CN([C@H](C)CO)C(=O)c2cc(NC(=O)CCN3CCOCC3)ccc2O[C@H]1CN(C)Cc1ccc(Cl)c(Cl)c1,11.2[16.7 µM]
Cc1ccc(S(=O)(=O)Nc2ccc3c(c2)CC(=O)N([C@H](C)CO)C[C@H](C)[C@@H](CN(C)Cc2ccc(C(F)(F)F)cc2)O3)cc1,17.7[16.7 µM]

# Four structures already listed, sorted by SMILES length, falling.
SMILES,Env fusion inh
C[C@H]1CN([C@@H](C)CO)C(=O)c2cc(NC(=O)Cc3cn(C)c4ccccc34)ccc2O[C@@H]1CN(C)Cc1ccc(-c2ccccc2)cc1,-17.6[16.7 µM]
C[C@@H]1CN([C@@H](C)CO)C(=O)c2ccccc2-c2ccccc2CO[C@@H]1CN(C)C(=O)CCC(F)(F)F,14.7[16.7 µM]
C[C@@H]1CN([C@@H](C)CO)C(=O)c2ccccc2-c2ccccc2CO[C@H]1CN(C)C(=O)C1CC1,-6.9[16.7 µM]
C=CCN=C1NC(c2ccc(Cl)cc2)C(C(=O)OC)=C(C)N1Cc1ccccc1C(F)(F)F (stereo not drawn),28.3

# (cont.)
SMILES,Env fusion inh
Cc1ccc(-c2cnc3c(c2)C(=O)N([C@@H](C)CO)C[C@H](C)[C@@H](CN(C)S(C)(=O)=O)O3)cc1,-1.0[16.7 µM]
CO[C@H]1CN(C)C(=O)c2cc(NS(=O)(=O)c3cccc(F)c3)ccc2OC[C@@H](C)NC[C@@H]1C,-21.0[16.7 µM]
Nc1[nH]c(C(=O)c2ccccc2)c(-c2ccc3ccccc3c2)c1C(=O)NCc1ccc(F)cc1,7.5
C[C@H](CO)N1C[C@H](C)[C@@H](CN(C)S(=O)(=O)c2ccc(F)cc2)Oc2c(NC(=O)C3CCOCC3)cccc2C1=O,-16.6[16.7 µM]
Cc1noc(C)c1NC(=O)Nc1ccc2c(c1)CC(=O)N([C@@H](C)CO)C[C@@H](C)[C@@H](CN(C)Cc1ccc(-c3ccccc3)cc1)O2,-38.1[16.7 µM]
O=C(N[C@@H]1CC[C@@H](CCNC(=O)c2cnccn2)O[C@@H]1CO)c1ccc2c(c1)OCO2,10.3[16.7 µM]
CN1CCN(C(=O)C[C@H]2C=C[C@H](NS(=O)(=O)c3cccc(F)c3)[C@H](CO)O2)CC1,-4.8[16.7 µM]
C[C@H]1CN([C@@H](C)CO)C(=O)Cc2cc(N(C)C)ccc2O[C@@H]1CN(C)Cc1ccc(C(F)(F)F)cc1,2.1[16.7 µM]

# A portion of the library. The share of hits here may be higher or lower than overall.
